# Compound activity: PubChem, Broad Institute
# MLL AF4-AF9 inh: blocks AF4 peptide binding to human AF9; inhibition, % at 10 µM; AlphaScreen, biotin-AF4 peptide binding to FLAG-AF9; AID 651704; P42568; 350,000 tested, 0.47% active;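 active = every replicate reaching a set inhibition limit, whatever the replicate mean, cut at about 25% in these data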;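 also: 0% = plate neutral control median and 100% = total signal loss; the record names both 10 and 1 µM as test concentration; the first replicate is given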
# Target sequence (P42568 whole entry, looked up): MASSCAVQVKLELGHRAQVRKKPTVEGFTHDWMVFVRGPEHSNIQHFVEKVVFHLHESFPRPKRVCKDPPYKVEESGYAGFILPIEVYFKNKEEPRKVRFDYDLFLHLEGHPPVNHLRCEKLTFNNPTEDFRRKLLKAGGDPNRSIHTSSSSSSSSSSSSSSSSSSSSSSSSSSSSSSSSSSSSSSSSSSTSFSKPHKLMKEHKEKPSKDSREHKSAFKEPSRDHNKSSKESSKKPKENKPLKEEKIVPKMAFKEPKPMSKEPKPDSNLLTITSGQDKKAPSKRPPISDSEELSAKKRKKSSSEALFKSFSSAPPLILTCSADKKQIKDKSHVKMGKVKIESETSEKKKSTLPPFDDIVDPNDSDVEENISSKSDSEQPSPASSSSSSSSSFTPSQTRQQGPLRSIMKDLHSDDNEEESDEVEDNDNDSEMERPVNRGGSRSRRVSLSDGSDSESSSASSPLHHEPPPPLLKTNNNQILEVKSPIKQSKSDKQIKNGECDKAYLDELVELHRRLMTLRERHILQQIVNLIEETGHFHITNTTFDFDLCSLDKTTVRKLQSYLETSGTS
# * marks the source's active call; other numbers are inactive results; & = joins results of further samples.
SMILES,MLL AF4-AF9 inh
CCNC(=O)C[C@@H]1CC[C@H]2[C@@H](COC[C@H](O)CN2C(=O)c2cccnc2)O1,-2.2
COCC#Cc1ccc([C@@H]2[C@H]3CN(C(=O)Nc4ccccc4F)CC(=O)N3[C@H]2CO)cc1,-3.2
COc1ccc(C#Cc2ccc3c(c2)[C@H]2[C@H](CCN2C(=O)C2CC2)[C@H](CO)N3)cc1,0.9
C[C@@H]1CN([C@@H](C)CO)C(=O)c2ccccc2-c2ccccc2CO[C@@H]1CN(C)C(=O)Nc1ccnc(N2CCOCC2)c1,-0.2
CCOC(=O)C1=CCN(S(=O)(=O)c2ccccc2F)C1c1cccc(C)c1 (stereo not given),-1.7
C[C@@H]1CN([C@H](C)CO)C(=O)c2ccccc2-c2ccccc2CO[C@H]1CN(C)S(=O)(=O)c1ccccc1F,16.8
O=C(C1CCC1)N1CC(=O)N2[C@H](CO)[C@H](c3ccc(Br)cc3)[C@@H]2C1,-2.0
CCCC#Cc1cnc2c(c1)C(=O)N([C@H](C)CO)C[C@@H](C)[C@@H](CN(C)Cc1ccccc1)O2,-2.5
CCOc1ccc(CCN2C(=O)C(=O)N([C@@H](CC(C)C)CN3CCC[C@@H]3CN3C(=O)C(=O)NC[C@@H]3CC(C)C)C[C@@H]2Cc2ccccc2)cc1,1.4
CCc1c(-c2ccc(Br)cc2)ncn1CCc1ccccc1OC,2.0
CC(C)NC(=O)N(C)C[C@@H]1OCCCC[C@@H](C)Oc2ccc(NC(=O)c3ccncc3)cc2C(=O)N([C@H](C)CO)C[C@@H]1C,-14.7
COc1ccc(CN2[C@@H]3CN(C(=O)c4ccccc4)c4ccccc4[C@@H]3[C@@H]2CO)cc1,1.3
C[C@@H]1CN([C@H](C)CO)C(=O)c2cc(NC(=O)Cn3cnnn3)ccc2O[C@H]1CN(C)S(=O)(=O)c1cccs1,-2.1
CN1C(=O)c2cc(NC(=O)C3CCOCC3)ccc2OC[C@H]2O[C@H](CC(=O)NCCc3ccncc3)CC[C@@H]21,-0.4
C[C@H]1CN([C@@H](C)CO)C(=O)c2cc(NC(=O)Nc3cccc4ccccc34)ccc2O[C@@H]1CN(C)Cc1ccc2c(c1)OCO2,-1.4
Cc1ccccc1-c1ccc([C@H]2[C@@H](CO)N3CCCCN(C(=O)Nc4ccc(F)cc4)C[C@H]23)cc1,1.8
CC1(C(=O)NS(=O)(=O)c2cccc(Cl)c2)CCN1C(=O)c1ccccc1 (stereo not given),-6.7
C[C@H](CO)N1C[C@H](C)[C@H](CN(C)Cc2ccccc2F)Oc2cc(C3=CCCC3)ccc2S1(=O)=O,3.9
C[C@H](O)C#Cc1ccc2c(c1)O[C@H](CN(C)C(=O)C1CC1)[C@H](C)CN([C@@H](C)CO)S2(=O)=O,-7.3
C[C@@H]1CCCCO[C@@H](CN(C)C(=O)Nc2ccccc2)[C@@H](C)CN([C@H](C)CO)C(=O)c2cc(NC(=O)Nc3cccc4ccccc34)ccc2O1,-2.6
O=C(N[C@@H]1CC[C@@H](CC(=O)N2CCOCC2)O[C@@H]1CO)c1ccc2c(c1)OCO2,-2.4
C[C@@H]1CN([C@@H](C)CO)C(=O)c2cc(-c3ccccc3)cnc2O[C@H]1CN(C)Cc1ccccn1,-12.2
COCC(=O)N(C)C[C@H]1Oc2cc(C#CC3CC3)ccc2S(=O)(=O)N([C@@H](C)CO)C[C@@H]1C,1.1
CO[C@H]1CN(C)C(=O)c2ccc(NC(=O)c3ccccc3)cc2OC[C@@H](C)N(C(C)=O)C[C@@H]1C,-13.6
C#CCNC(=O)c1csc([C@@H]2O[C@H](CO)[C@@H](O)[C@H]2O)n1,-2.3

# Overlap with the part before: 5 entries, followed by the next part.
SMILES,MLL AF4-AF9 inh
O=C(N[C@@H]1CC[C@@H](CC(=O)N2CCOCC2)O[C@@H]1CO)c1ccc2c(c1)OCO2,-2.4
C[C@@H]1CN([C@@H](C)CO)C(=O)c2cc(-c3ccccc3)cnc2O[C@H]1CN(C)Cc1ccccn1,-12.2
COCC(=O)N(C)C[C@H]1Oc2cc(C#CC3CC3)ccc2S(=O)(=O)N([C@@H](C)CO)C[C@@H]1C,1.1
CO[C@H]1CN(C)C(=O)c2ccc(NC(=O)c3ccccc3)cc2OC[C@@H](C)N(C(C)=O)C[C@@H]1C,-13.6
C#CCNC(=O)c1csc([C@@H]2O[C@H](CO)[C@@H](O)[C@H]2O)n1,-2.3
O=C(C[C@@H]1CC[C@@H](NC(=O)c2ccccc2)[C@@H](CO)O1)NCc1ccncn1,-0.1
CNC(=O)C[C@H]1CC[C@@H]2[C@@H](COc3ccc(NC(=O)c4ccc(OC)cc4)cc3C(=O)N2C)O1,-0.8
C[C@@H]1CN([C@H](C)CO)C(=O)c2cc(NC(=O)NC3CCCCC3)ccc2O[C@H]1CN(C)Cc1ccc(C(F)(F)F)cc1,-0.9
C[C@H](CO)N1C[C@H](C)[C@@H](CN(C)Cc2ccccn2)Oc2ncc(C#Cc3ccccc3)cc2C1=O,6.6
COC(=O)c1ccc2nc(-c3cccc(Br)c3)c(Cc3cccc(Cl)c3)n2c1,-0.9
Cc1noc(C)c1NC(=O)N(C)C[C@@H]1Oc2ccc(NC(=O)C3CCCCC3)cc2C(=O)N([C@H](C)CO)C[C@H]1C,-2.5
O=C(C1CCOCC1)N1CC[C@@H]2[C@H](CO)Nc3ccc(-c4cccc(F)c4)cc3[C@@H]21,-7.9
Cc1cc2nc(-c3ccco3)c(CC(C)(C)C)n2c(C)c1Br,0.6
COc1ccccc1NS(=O)(=O)c1ccc(C(=O)NCC(c2ccco2)N2CCCCC2)cc1 (stereo not given),-0.2
C[C@@H]1CCCCO[C@@H](CN(C)Cc2ccc(C(F)(F)F)cc2)[C@H](C)CN([C@H](C)CO)C(=O)c2cc(NC(=O)CCCN(C)C)ccc2O1,9.6
C[C@@H]1CN([C@H](C)CO)C(=O)c2cccc(NC(=O)Nc3ccccc3)c2O[C@H]1CN(C)Cc1ccc(-c2ccccc2)cc1,0.0
C[C@@H]1CN([C@@H](C)CO)C(=O)c2cccc(NS(=O)(=O)c3ccc(F)cc3)c2O[C@H]1CN(C)CC1CCCCC1,-1.2
Cc1noc(C)c1NC(=O)Nc1ccc2c(c1)C(=O)N([C@H](C)CO)C[C@H](C)[C@@H](CN(C)C(=O)Nc1ccccc1)OCCCC[C@H](C)O2,-0.7
Cc1noc(C)c1NC(=O)N(C)C[C@H]1Oc2c(NC(=O)NC(C)C)cccc2C(=O)N([C@@H](C)CO)C[C@H]1C,-4.5
COCCNC(=O)c1cc2c(c(-c3cccc(C4=CCCCC4)c3)n1)[C@H](CCO)N([S@@](=O)C(C)(C)C)C2,1.3
OC[C@H]1[C@H]2c3ccccc3NC[C@H]2N1CC1CCOCC1,-0.8
C[C@@H]1CCCCO[C@@H](CN(C)S(=O)(=O)c2ccccc2)[C@@H](C)CN([C@H](C)CO)C(=O)c2cc(NS(=O)(=O)c3cn(C)cn3)ccc2O1,-4.1
C[C@H]1CN([C@@H](C)CO)S(=O)(=O)c2ccc(C3=CCCC3)cc2O[C@@H]1CN(C)CC1CCOCC1,5.2
C[C@@H](NC(=O)C[C@H]1C[C@H]2c3cc(NS(=O)(=O)c4ccc(F)cc4)ccc3O[C@H]2[C@@H](CO)O1)c1ccccc1,1.2
C[C@H](CO)N1C[C@H](C)[C@@H](CN(C)C(=O)C2CCCCC2)OCCCC[C@H](C)Oc2ccc(NC(=O)Nc3cccc4ccccc34)cc2C1=O,-4.0
CCC(=O)Nc1ccc2c(c1)C(=O)N(C)[C@@H]1CC[C@@H](CC(=O)NC3CCCC3)O[C@H]1CO2,-3.2
COc1ccc(NC(=O)Nc2ccc3c(c2)C(=O)N([C@H](C)CO)C[C@H](C)[C@@H](CN(C)C(=O)Cc2ccccc2)OCCCC[C@H](C)O3)cc1,-3.6
C[C@@H]1CN([C@@H](C)CO)C(=O)c2cc(C#Cc3cccnc3)cnc2O[C@@H]1CN(C)S(C)(=O)=O,-7.5
C[C@@H]1CN([C@@H](C)CO)C(=O)CCCn2nncc2CO[C@H]1CN(C)Cc1cccc(C(=O)O)c1,-1.9
CCCC(=O)Nc1ccc2c(c1)C(=O)N(C)C[C@H](OC)[C@@H](C)CN[C@H](C)CO2,-1.1

# Some of the entries so far, field by field:
OC[C@H]1[C@H]2c3ccccc3NC[C@H]2N1CC1CCOCC1
  MLL AF4-AF9 inh: -0.8
C[C@@H]1CCCCO[C@@H](CN(C)S(=O)(=O)c2ccccc2)[C@@H](C)CN([C@H](C)CO)C(=O)c2cc(NS(=O)(=O)c3cn(C)cn3)ccc2O1
  MLL AF4-AF9 inh: -4.1

# Later entries:
SMILES,MLL AF4-AF9 inh
CC(=O)Nc1cccc(Oc2nc(NCCN(C)C)nc3ccsc23)c1,5.2
CO[C@H]1CN(C)C(=O)c2cc(NS(C)(=O)=O)ccc2OC[C@@H](C)NC[C@H]1C,-5.1
NCC[C@H]1CC[C@H](NC(=O)NC2CCCCC2)[C@H](CO)O1,0.1
COc1ccc(Cl)cc1-c1cc(C(=O)N[C@H](C)c2ccccc2)[nH]n1,-1.5
COc1ccc(NC(=O)N(C)C[C@@H]2Oc3c(NC(=O)Nc4ccc5c(c4)OCO5)cccc3C(=O)N([C@@H](C)CO)C[C@@H]2C)cc1,4.9
CC(C)c1nc2oc3c(N4CCNCC4)ncnc3c2c2c1CCC2,-26.0
C[C@@H]1CN([C@H](C)CO)S(=O)(=O)c2ccc(Br)cc2O[C@H]1CN(C)CC1CCCC1,0.2
O=C1[C@H](Cc2ccccc2)NCCCC[C@H](c2ccc(Cl)cc2)N1Cc1ccc(Cl)cc1,2.5
C[C@@H]1CN([C@H](C)CO)C(=O)c2cccc(NC(=O)c3ccc(-c4nccs4)cc3)c2O[C@H]1CN(C)S(=O)(=O)c1ccc(Cl)cc1,1.4
CNC(=O)C[C@@H]1CC[C@H]2[C@H](COc3ccc(NC(=O)Nc4ccc(Cl)cc4)cc3C(=O)N2C)O1,0.5
CN(C)C(=O)C[C@H]1CC[C@@H]2[C@H](COc3ccc(NC(=O)C4CCOCC4)cc3C(=O)N2C)O1,-0.2
COC(=O)[C@]12C[C@H](CC(=O)NCc3cccc4ccccc34)C(=O)N(Cc3ccc4c(c3)OCO4)C1=C[C@H](COCc1ccccc1)O[C@@H]2C,1.1
C[C@@H]1CN([C@H](C)CO)C(=O)c2cccc(NC(=O)c3ccc(-c4nccs4)cc3)c2O[C@H]1CN(C)Cc1ccc(C(F)(F)F)cc1,0.8
COc1ccc(NC(=O)Nc2ccc3c(c2)C(=O)N([C@H](C)CO)C[C@@H](C)[C@@H](CN(C)C(=O)C2CCCCC2)OCCCC[C@@H](C)O3)cc1,4.6
O=C(OCC(=O)N1CCN(C(=O)COC(=O)c2ccccc2NCCO)CC1)c1ccccc1NCCO,0.9
CC(C)(O)C#Cc1ccc(CNC[C@H]2O[C@@H](n3cnc(C(N)=O)n3)[C@H](O)[C@@H]2O)s1,-0.1
COc1cccc(S(=O)(=O)N(C)C[C@H]2OCc3cn(nn3)CCCC(=O)N([C@@H](C)CO)C[C@@H]2C)c1,4.8&-0.8
C[C@@H]1CN([C@@H](C)CO)C(=O)c2ccccc2-c2ccccc2CO[C@@H]1CN(C)C(=O)Nc1ccccc1C(F)(F)F,-0.1
CCCNC(=O)N(C)C[C@H]1Oc2ncc(-c3ccc(OC)cc3)cc2C(=O)N([C@@H](C)CO)C[C@@H]1C,-1.1
Cc1ccc2cc(F)c(F)c(F)c2n1,-2.1
O=C(C[C@@H]1CC[C@@H]2[C@H](COC[C@@H](O)CN2C(=O)c2cccnc2)O1)NCc1ccccc1,-0.5
COc1ccc(C(O)c2ncc(-c3ccc4ccccc4c3)[nH]2)cc1 (stereo not given),-0.6
CC(=O)c1ccc(NC(=O)CSc2nc3nn(-c4ccccc4)c(=O)c-3c3n2CCCCC3)cc1,-2.5
Cc1ccc(S(=O)(=O)N(C)C[C@H]2Oc3ccc(NS(=O)(=O)c4ccccc4)cc3CC(=O)N([C@H](C)CO)C[C@H]2C)cc1,-7.3
CCCC[C@@H]1Cc2[nH][nH]c(=O)c2[C@H](c2cccc3ccccc23)O1,-0.3

# Pulled one by one from the list above:
SMILES,MLL AF4-AF9 inh
COc1ccc(NC(=O)Nc2ccc3c(c2)C(=O)N([C@H](C)CO)C[C@@H](C)[C@@H](CN(C)C(=O)C2CCCCC2)OCCCC[C@@H](C)O3)cc1,4.6
CC(=O)Nc1cccc(Oc2nc(NCCN(C)C)nc3ccsc23)c1,5.2

# Further compounds.
SMILES,MLL AF4-AF9 inh
COC(=O)C[C@@H]1C[C@@H]2c3cc(NC(=O)CN(C)C)ccc3O[C@@H]2[C@@H](CO)O1,-16.5
CC1(C)OC(=O)C2=C(C[C@@H](C3CC3)O[C@H]2CCc2cccc(Cl)c2)O1,-3.8
O=C(C[C@@H]1CC[C@H]2[C@@H](COC[C@@H](O)CN2C(=O)c2ccccc2)O1)NCc1cccc(F)c1,-9.4
O=C(C[C@@H]1CC[C@H]2NC[C@H](O)COC[C@@H]2O1)NCCc1ccccc1,-1.4
CCCNC(=O)C1(C)CCN(Cc2ccc(-c3ccccn3)cc2)C1 (stereo not given),1.8
Cc1ccc(C)c(C(O)c2ncc(-c3ccccc3Cl)[nH]2)c1 (stereo not given),3.3
C[C@H](CO)N1C[C@H](C)[C@H](CN(C)C(=O)Nc2ccccc2)Oc2ccc(NS(=O)(=O)c3ccccc3)cc2C1=O,-3.8
O=C(C[C@@H]1C[C@@H]2c3cc(NC(=O)NC4CCCCC4)ccc3O[C@@H]2[C@H](CO)O1)NCc1ccccc1,-1.8
O=C(C[C@@H]1CC[C@@H]2[C@H](COC[C@H](O)CN2Cc2nccs2)O1)NCc1ccc(-c2ccccc2)cc1,0.0
C[C@H]1CN([C@@H](C)CO)C(=O)Cc2cc(NC(=O)C3CC3)ccc2O[C@H]1CN(C)C(=O)Nc1ccccc1,-1.1
C[C@H]1CN([C@@H](C)CO)C(=O)c2cc(N(C)C)ccc2O[C@@H]1CN(C)S(=O)(=O)c1cccs1,2.6
O=C(C1CCOCC1)N1CC(=O)N2[C@H](CO)[C@@H](c3ccc(C#CCc4ccccc4)cc3)[C@@H]2C1,0.5

# Not all compounds are listed (hit frequency here may not be typical).
